Compound activity (PubChem)
PKD1 inh: inhibitors of human PKD1 kinase, biochemical, fluorescence polarization | Serine/threonine-protein kinase D1 (Homo sapiens), Q15139 | PKD1 kinase fluorescence polarization assay | inhibition, %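 (about 10 µM by stock and volumes)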 | 200,000 compounds, 0.056% hits | AID 797, 2007;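 active means inhibition of 50% or more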;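 further: controls were vehicle for no effect and a reference inhibitor for full effect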
RGS16-Gao: modulators of RGS16 binding to Galphao, primary screen, biochemical, human proteins, multiplexed bead flow cytometry; Regulator of G-protein signaling 16 (Homo sapiens) + Guanine nucleotide-binding protein …; bead-based flow cytometry RGS16-Galphao binding, fluorescence; actives lie on both sides; binding response (% of control), % at 10 µM; 220,000 compounds, 0.38% hits; AID 1441, 2008;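 active means below 25% or above 175%, edge rows of some plates excepted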;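 further: Galphao activated by GDP with aluminum fluoride before binding; 100% = wells without compound and 0% = beads without RGS; some results beyond the cut were filed as inactive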
Target sequence (O15492 whole entry, looked up): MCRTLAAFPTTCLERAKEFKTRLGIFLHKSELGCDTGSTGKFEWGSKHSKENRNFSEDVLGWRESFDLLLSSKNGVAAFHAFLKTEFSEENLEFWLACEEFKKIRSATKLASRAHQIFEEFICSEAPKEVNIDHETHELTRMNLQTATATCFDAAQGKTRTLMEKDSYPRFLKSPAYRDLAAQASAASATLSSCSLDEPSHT
Target sequence (P09471 whole entry, looked up): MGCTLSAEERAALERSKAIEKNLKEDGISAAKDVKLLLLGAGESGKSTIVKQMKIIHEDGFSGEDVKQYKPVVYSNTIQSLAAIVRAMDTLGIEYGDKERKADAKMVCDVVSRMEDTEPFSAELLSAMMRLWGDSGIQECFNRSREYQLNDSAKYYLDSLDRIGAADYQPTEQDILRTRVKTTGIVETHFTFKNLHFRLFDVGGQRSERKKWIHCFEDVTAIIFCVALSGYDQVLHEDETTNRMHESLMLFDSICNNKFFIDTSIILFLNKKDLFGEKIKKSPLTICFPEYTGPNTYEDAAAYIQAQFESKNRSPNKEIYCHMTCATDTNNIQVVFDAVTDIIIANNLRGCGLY
GALR2 ag: GALR2 receptor agonists, primary screen, cell-based. GALR2-expressing cells, agonist activation read-out. activation, %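 (tested at 5 µM)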. 140,000 compounds, 0.48% hits;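 active means above mean plus 3 SD of all compounds, about 5% in these data, not always enough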;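 further: 0% = vehicle buffer wells and 100% = reference agonist at full effect; tested in CHO reporter cells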
Target sequence (O43603 whole entry, looked up): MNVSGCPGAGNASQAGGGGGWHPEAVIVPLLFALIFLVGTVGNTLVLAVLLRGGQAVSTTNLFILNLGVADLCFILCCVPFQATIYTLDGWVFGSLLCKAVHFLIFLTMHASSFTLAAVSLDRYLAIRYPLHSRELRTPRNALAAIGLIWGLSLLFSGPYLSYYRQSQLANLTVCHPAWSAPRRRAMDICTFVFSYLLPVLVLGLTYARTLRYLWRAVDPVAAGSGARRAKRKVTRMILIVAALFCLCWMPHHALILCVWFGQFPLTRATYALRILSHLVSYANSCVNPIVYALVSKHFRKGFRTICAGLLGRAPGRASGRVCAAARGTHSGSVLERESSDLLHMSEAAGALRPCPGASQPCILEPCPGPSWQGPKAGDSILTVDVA
Insulin prom inh: inhibitors of insulin promoter-driven GFP, primary screen, imaging, TRM-6 cells (human fetal islet line), eGFP reporter, cell count; reporter expression induced with tamoxifen; inhibition, % at 2 µM; AID 1273, 2008; 130,000 compounds, 0.9% hits;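 active means inhibition above the mean plus 3 SD, with well images judged a real hit on visual review, cut at about 60% in these data, passing the limit was not always enough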
HSV replic up: enhancers of HSV replication in host cells, fold increase, host cell viability; HSV replication augmentation in cells; maximum fold increase; 220,000 compounds, 0.005% hits;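 active means peak rise of 1.5-fold or more in the series; tested in PC3 cells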;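 further: first round at 10 µM; read as green reporter fluorescence; hits show the peak of a series up to 25 µM; 1 = signal of infected wells without compound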
Insulin prom inh cell count: recorded beside Insulin prom inh, whose call it bears; normalized cell count, %; measured here: cell count, toxicity; reference of the scale not given here;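 cells exposed to compound for 48 h; stained nuclei by imaging scaled within each plate; lower means fewer cells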
HSV replic up primary fold: recorded beside HSV replic up, whose call it bears; fold increase; compound at 10 µM; measured here: primary screen fold increase 10 uM; tested in PC3 cells;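 GFP signal in the first replicate; 1 = infected wells without compound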
* hit, by the source's call; i = inactive; . = not tested or not shown.

SMILES	PKD1 inh	RGS16-Gao	GALR2 ag	Insulin prom inh	Insulin prom inh cell count	HSV replic up	HSV replic up primary fold
S=C(c1ccc(-c2cccc(Cl)c2)o1)N1CCCCC1	-3.3	66.1	.	14.3	70.7	i	1.01
Cc1cccc(-n2nnc(C(=O)NCc3ccc4c(c3)OCO4)c2N)c1	-9.0	101.6	-0.4	.	.	i	1.05
c1ccc(-c2noc(-c3ccc4ccccc4c3)n2)cc1	-14.4	95.9	-2.2	-90.9	118.3	i	0.97
O=C(CCNS(=O)(=O)c1cccs1)NCc1ccco1	-19.8	107.1	-2.4	46.7	119.0	i	0.91
Cc1ccccc1NC(=O)C(=O)NCCCN1CCOCC1	-8.1	102.8	.	-40.7	125.5	i	0.96
CCC/C=N/NC(=O)c1cc(Br)ccc1O	-4.1	102.2	-1.0	-266.7	62.2	i	0.98
Cc1cc2ccccc2c(=O)n1CC(=O)NCC(=O)N1CCN(c2ccccc2F)CC1	2.9	98.2	-0.2	-50.0	57.6	i	0.94
NC(=O)CC(NC(=O)Cc1cccc2ccccc12)c1ccc(N2CCN(c3ccc(F)cc3)CC2)c([N+](=O)[O-])c1 (stereo unspecified)	.	97.0	.	.	.	i	0.93
COC(=O)[C@@]1(Cc2ccc(OC)cc2)[C@H]2c3cc(C(=O)N4CCCC4)n(Cc4ccc(OC)c(OC)c4)c3C[C@H]2CN1C(=O)c1ccccc1	-17.9	101.4	1.5	-10.0	109.5	i	0.83
O=C(CSc1nnc(CNc2ccc(F)cc2)o1)OC1CCCCC1	-3.0	114.8	-1.2	-37.8	118.6	i	0.97
O=C(N/N=C/c1ccc(O)c2ncccc12)c1cccc(Br)c1	5.8	99.8	.	.	.	i	0.72
Cc1cc(N2CCN(c3ccccc3)CC2)n2c(n1)nc1ccccc12	-211.4	97.8	0.9	-13.9	90.5	i	0.81
COC(=O)c1ccccc1NC(=O)CSc1nnc(-c2ccc(C)cc2)o1	-13.3	134.8	-1.0	68.8	74.9	i	0.98
Cc1ccccc1C(=O)NC(CC(C)C)C(=O)Nc1ccc(F)c([N+](=O)[O-])c1 (stereo unspecified)	0.0	87.9	-2.3	-6.7	29.6	i	0.98
CCOC(=O)Cc1cn2c(=O)cc(CSCC(=O)Nc3ccc(C)c(C)c3)nc2s1	-11.3	94.0	-1.0	-34.6	142.0	i	1.03
O=C(NCc1cccs1)c1cc(-c2ccncc2)nc2ccc(Br)cc12	4.6	98.8	.	.	.	i	0.88
COc1ccc(C(=O)c2cc([N+](=O)[O-])ccc2N2CCN(C)CC2)cc1	-1.9	115.9	.	.	.	i	0.78
CCn1cc(C(=O)OCC(=O)OC2CC(C)CCC2C(C)C)c(=O)c2ccc(C)nc21 (stereo unspecified)	-4.5	41.8	-0.9	55.6	146.5	i	0.84
Cc1c(-c2cc(C(=O)O)no2)cnn1C	-0.2	103.2	.	7.7	60.6	i	0.87
CC(=O)c1ccc(N2CCN(C(=O)c3cc(C)on3)CC2)cc1	-7.0	113.5	-1.1	-56.2	134.8	i	0.99
Cc1ccc(S(=O)(=O)N(C)C)cc1NC(=S)NCCCn1ccnc1	-7.5	98.8	.	.	.	i	0.84
Cc1ccc(NS(=O)(=O)c2cccc(C(=O)O)c2)c(C)c1	2.4	109.5	-1.3	-50.0	105.2	i	0.87
CC(C)(C)NC(=O)CN(Cc1ccc2c(c1)OCO2)C(=O)CCC(=O)Nc1nccs1	-1.2	96.0	.	-30.8	74.4	i	0.98
CN(CC(=O)Nc1ccccc1-c1ccccc1)Cc1ccccc1Cl	-0.1	98.6	.	.	.	i	0.97

Single records, as listed above. Order of screens: PKD1 inh	RGS16-Gao	GALR2 ag	Insulin prom inh	Insulin prom inh cell count	HSV replic up	HSV replic up primary fold
`Cc1ccccc1C(=O)NC(CC(C)C)C(=O)Nc1ccc(F)c([N+](=O)[O-])c1` (stereo unspecified) is listed as 0.0	87.9	-2.3	-6.7	29.6	i	0.98
`O=C(CSc1nnc(CNc2ccc(F)cc2)o1)OC1CCCCC1` is listed as -3.0	114.8	-1.2	-37.8	118.6	i	0.97

Next records:
SMILES	PKD1 inh	RGS16-Gao	GALR2 ag	Insulin prom inh	Insulin prom inh cell count	HSV replic up	HSV replic up primary fold
Cc1cccc(C)c1NC(=O)c1sc(Cl)nc1C	-12.0	112.3	-1.3	-38.5	127.7	i	0.96
Cc1noc(NC(=O)c2ccccc2Cl)c1C#N	-0.5	103.1	-1.4	50.0	162.6	i	1.05
O=C(NCc1ccncc1)c1ccc(Cn2cc(C(F)(F)F)ccc2=O)cc1	-11.1	103.9	-2.6	14.3	51.5	i	0.86
O=C(CSc1nnc2c(n1)[nH]c1ccc(S(=O)(=O)N3CCOCC3)cc12)Nc1ccccc1Cl	2.1	103.3	.	25.0	124.3	i	0.74
O=c1c(-c2ccccc2)nc(-c2ccccc2)cn1O	-5.5	98.9	-1.8	16.1	93.0	i	0.97
O=C(CCN1CCN(c2ccc(Cl)cc2)CC1)Nc1ccccc1F	2.9	102.4	-0.2	.	.	i	1.18
CS(=O)(=O)N1CCC(C(=O)Nc2ccc(Cl)c(C(F)(F)F)c2)CC1	-9.4	97.6	0.2	39.5	87.2	i	0.99
COc1ccc2[nH]c(-c3cccc(F)c3)cc(=O)c2c1	-6.9	90.7	1.8	-338.1	4.6	i	0.69
O=C(NC1CCSC1)c1cccc(Cl)c1 (stereo unspecified)	.	111.4	.	.	.	i	1.05
CC(=O)NC1=NN(C(C)=O)C(C)(c2ccco2)S1 (stereo unspecified)	-0.3	99.0	.	50.0	144.1	i	0.81
O=C(c1cccs1)C1C(c2ccc(Br)cc2)NC(=S)NC1(O)C(F)(F)F (stereo unspecified)	-7.1	57.6	-0.5	-6.9	42.4	i	1.1
O=[N+]([O-])c1c(NCc2ccccc2)cc(N2CCc3ccccc3C2)c2nonc12	-4.4	107.9	-1.7	.	.	i	0.99
CC(C)COc1ccc(CSCCNC(=S)Nc2ccccc2)cc1	2.2	109.4	-2.5	.	.	i	0.9
O=C(Cc1cccs1)N(CC1CCCO1)C1(C(=O)NC2CCCCC2)CCCCC1 (stereo unspecified)	3.4	102.1	.	-11.1	91.0	i	0.99
CC(C)(C#CCN1CCCC1)OCCC#N	-2.1	106.2	-2.2	50.0	72.0	i	0.94
CCOC(=O)c1sc2nc(C)c3c(c2c1N)CC(C)(C)OC3	-1.6	105.2	-3.2	8.6	139.5	i	0.94
CC(C)CNC(=O)c1cccc(NC(=O)COc2cccc([N+](=O)[O-])c2)c1	2.0	96.2	.	.	.	i	1.08
CCOC(=O)C1(CCOC)CCN(C(C)CCc2ccc(OC)cc2)CC1 (stereo unspecified)	-0.1	103.4	.	.	.	i	0.92
COc1cccc2c(SCC(=O)N/N=C/c3ccc(O)c(O)c3)cc(C)nc12	-0.4	93.7	.	38.9	140.7	i	0.88
COc1cccc(CN(C)C(=S)Nc2cccc(C)c2)c1	0.8	102.4	.	.	.	i	0.94
c1ccc(CSc2nnc3ccc(-c4ccncc4)nn23)cc1	-9.5	103.8	.	44.4	92.5	i	0.86
Cc1cccc(OCCOC(=O)Nc2ccccc2)c1	-3.0	114.8	-1.1	-10.0	102.7	i	0.95
O=C(NCc1ccccc1)c1ccc(CN(c2ccccn2)S(=O)(=O)c2ccccc2)cc1	1.2	84.9	-1.2	18.9	48.9	i	0.82
COC(=O)[C@@]1(Cc2ccc(OC)cc2)[C@H]2c3cc(C(=O)N4CCCC4)n(CCc4c[nH]c5ccc(O)cc45)c3C[C@H]2CN1C(=O)c1ccccc1	-6.3	103.2	0.0	15.0	70.6	i	0.95
COc1ccccc1NC(=O)Nc1ccc(F)c(F)c1	5.5	98.1	.	20.9	58.6	i	1.01
O=[N+]([O-])c1ccc(CCNc2cccc3ccccc23)c([N+](=O)[O-])c1	-0.1	104.1	0.5	41.2	85.4	i	1.01
COc1ccc(CNC(=O)c2cc(-c3cccs3)on2)cc1	4.7	103.4	-4.9	.	.	i	0.92
CCN(CC)S(=O)(=O)c1ccc(NC(=O)Nc2cccc(C(F)(F)F)c2)cc1	-6.7	91.4	1.3	13.5	225.8	i	0.69
N#Cc1ccc(CSc2nnc(NC(=O)c3ccc4ncsc4c3)s2)cc1	-3.1	88.0	.	.	.	i	1.07
CC(C)=CC(=O)Nc1nnc(-c2ccccc2C)s1	-5.7	100.5	.	-35.7	65.1	i	0.99
CC1CCN(CCNC(=S)Nc2ccc(Cl)cc2)CC1	-1.8	100.5	.	.	.	i	0.93
COCC(=O)NC1CCN(C(=O)NCc2ccccc2)CC1	-8.3	88.5	-0.9	-17.2	141.2	i	0.79
CCCc1ncc(C(O)c2ccc(OC)cc2)n1C (stereo unspecified)	-3.6	100.0	-0.9	21.2	125.7	i	1.03
Cc1cc(/C=N/Nc2nc(N)ncc2[N+](=O)[O-])c(C)n1-c1cccc(C(F)(F)F)c1	.	100.5	.	.	.	i	0.85
O=C(CN1CCCCC1)NNc1nc(-c2ccccc2)c2cc(Cl)ccc2n1	4.0	106.5	.	-21.4	105.7	i	0.77
CCOC(=O)c1cc(-c2ccc(C#N)cc2)nc2c1c(C)nn2CCC#N	-8.1	92.8	-1.2	-30.0	83.8	i	1.1
N#Cc1cnc2cc(-c3ccccc3)nn2c1N	.	101.4	.	.	.	i	0.91
O=C(Nc1ccc2nc(C3CC3)n(Cc3ccccc3)c(=O)c2c1)C1CC1	.	100.9	.	.	.	i	0.97
Cc1ccc(OCC(=O)Nc2cc(C(=O)O)cc(C(=O)O)c2)cc1C	-9.0	98.2	.	-53.3	106.2	i	0.91
CCc1cc2c(=O)n(Cc3ccco3)c(SCC(=O)NC3CCS(=O)(=O)C3)nc2s1 (stereo unspecified)	-6.1	100.1	.	.	.	i	1.09
CCOC(=O)c1nc2c(ccc3ccccc32)cc1C	.	103.4	.	.	.	i	0.94
COc1ccc(CCCC(=O)Nc2ccc(F)cc2)cc1	-3.8	107.7	-1.6	-7.7	92.0	i	0.88
NC(=O)CNC(=O)c1cccc(Cl)c1	.	100.4	.	.	.	i	1.03
CCC(=O)N1CCc2cc(S(=O)(=O)NCCC(=O)Nc3ccccc3C)ccc21	-9.2	101.0	-1.9	.	.	i	0.92
C=C(C)c1cccc(C(C)(C)NC(=O)Nc2ccc(OC)cc2)c1	-7.9	111.5	.	.	.	i	0.98
Cc1ccc(S(=O)(=O)N(C)C)cc1NC(=S)NNC(=O)C(N)=O	-1.9	99.2	.	.	.	i	1.06
COc1cc(C(=O)NS(=O)(=O)c2ccccc2C)ccc1Cc1cn(C)c2ccc(NC(=O)OC3CCCC3)cc12	.	98.3	.	.	.	i	0.85
CCn1ccnc1CN1CCc2c([nH]c3ccccc23)C1CC(C)C (stereo unspecified)	-6.5	113.4	.	.	.	i	1.03

A draw from above in order of length of the SMILES, rising:
SMILES	PKD1 inh	RGS16-Gao	GALR2 ag	Insulin prom inh	Insulin prom inh cell count	HSV replic up	HSV replic up primary fold
N#Cc1cnc2cc(-c3ccccc3)nn2c1N	.	101.4	.	.	.	i	0.91
COc1ccc(CCCC(=O)Nc2ccc(F)cc2)cc1	-3.8	107.7	-1.6	-7.7	92.0	i	0.88
C=C(C)c1cccc(C(C)(C)NC(=O)Nc2ccc(OC)cc2)c1	-7.9	111.5	.	.	.	i	0.98

Continuation:
SMILES	PKD1 inh	RGS16-Gao	GALR2 ag	Insulin prom inh	Insulin prom inh cell count	HSV replic up	HSV replic up primary fold
COCC1CCCN(Cc2cn(-c3ccccc3F)nc2-c2cc(C)sc2C)C1 (stereo unspecified)	-2.5	98.8	.	.	.	i	0.8
O=C(NCCc1ccccc1)C1CCN(S(=O)(=O)c2cccnc2)CC1	-6.2	101.4	-1.6	.	.	i	0.83
Cc1c(C(=O)N2CCCC2)oc2c1-c1[nH]ncc1CC2	7.9	64.5	0.3	-25.0	75.1	i	0.97
CCC(=O)c1c[nH]c(C(=O)NCc2ccco2)c1	-6.9	102.3	-3.3	23.1	78.1	i	0.94
CCNc1nc(Cl)nc(-c2cn(-c3ccccc3)c3ccccc23)n1	.	100.0	.	.	.	i	0.86
CC1CCN(CC(O)COC2CC(C)CCC2C(C)C)CC1 (stereo unspecified)	0.3	111.1	.	i	24.8	i	0.84
COc1ccc(/C(C)=N/Nc2nc3ccccc3nc2C)cc1OC	.	85.1	.	.	.	i	0.91
O=C(Nc1ccc2c(c1)CCC2)C1CCCO1 (stereo unspecified)	-1.8	103.3	-4.1	.	.	i	0.98
Cn1nc(-c2ccccc2)c(CSc2cccc(Cl)c2)c1Cl	-8.6	97.5	-2.0	-100.0	97.0	i	0.82
